LT uptake inh – blocks cellular internalization of anthrax lethal toxin; Cells, anthrax lethal toxin internalization, FRET ratio (460/530); Potency, µM (titrated, usually from 40 µM), for inactives: top-dose activity change, negative = inhibition, actives largely listed as inhibitors; hit rate 0.67% among 70,000; AID 912; active = well fitted falling ratio curve with the 530 nm signal flat; inconclusive = other ratio curves, or a change in one channel alone; inactive = flat curves in the ratio and both channels; the % refers to the ratio; also: % is scaled to controls: 0 for no effect and ±100 for the full control effect; nearly all actives have a fitted effect of over 50% in size; tested in ME-180 cells; beta-lactamase reporter
SmPrx2 inh – Schistosoma mansoni Prx2 inhibition | hit rate 0.07% among 65,000 | S. mansoni Prx2 activity coupled to TGR/GSH (TGR is thioredoxin glutathione reductase), NADPH fluorescence loss, qHTS; some inactives read as strong as hits | AID 448 | Potency, µM; active means full or partial inhibition curve with a strong effect at the top dose; inconclusive means weaker partial or single-point curve; inactive means no accepted curve; also: series up to 57 µM; many of its hits are not listed in these tables
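Purified S. mansoni TGR and Prx2 in pH 7.4 phosphate buffer with EDTA and Tween-20 were preincubated with compounds for 15 min. Further NADPH/GSH was added, then a 2.5 mM H2O2 aliquot initiated turnover, followed kinetically by NADPH fluorescence.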
Starred values were filed as active, the others as inactive; ? = inconclusive; . = not tested or not shown; & = joins results of further samples; ! = repeats disagree; [ ] = dose if it differs, or a comment. Potency is read from the fitted curve at half-maximal effect.

The line under a structure holds: SmPrx2 inh, LT uptake inh
- CC(C)(C)C1CCc2onc(C(=O)Nc3cccnc3)c2C1 (configuration not stated)
 : >57, -10%
- COC(=O)CCC(=O)Nc1sc2c(c1C#N)CCCC2
 : >57, -10%
- COc1ccccc1OCCn1cc(C(=O)c2ccco2)c2ccccc21
 : >57, 10µM*
- O=C1Cn2c(nc3ccccc32)N1c1ccccc1F
 : >57, .
- Cc1ccc(C(=O)CS(C)(=O)=O)cc1
 : >57, 12%
- COc1ccc(-c2nc(SC)n(C)c(=O)c2C#N)cc1OC
 : >57, -9%
- O=c1[nH]c(C(F)(F)F)nc2c1nnn2Cc1ccccc1F
 : >57, 8%
- CN(C)CS/C(N)=N/[C@H](O)C(Cl)(Cl)Cl
 : >57, -15%[8 µM]
- COC(=O)c1cccc(NC(=O)CSc2nnc(C)n2Cc2ccccc2)c1
 : >57, 4%
- Nc1cccc2c(N)cccc12
 : ., -1%
- CC(C)=CCC(C)(C)C1OCCN1C(=O)Nc1ccccc1 (configuration not stated)
 : >57, -5%
- Brc1ccc2[nH]c3nc(SCCN4CCOCC4)nnc3c2c1
 : >57, 8%
- NC(=S)SCCC(=O)O
 : >57, -3%[8 µM]
- CCOc1cc(-c2cc(N)n[nH]2)cc(OCC)c1OCC
 : >57, -6%
- Cc1ccc(-c2noc(CN(C(=O)CCCCCN3C(=O)c4ccccc4C3=O)C(C)C)n2)cc1
 : >57, -26%
- O=C(NCCc1ccccc1)c1cc(-c2ccco2)on1
 : >57, -5%
- Cn1cccc1-c1nc2ccccc2n1Cc1ccccc1
 : >57, -15%
- CC(=O)Oc1ccc(N2C(=O)CC(N3CCOCC3)C2=O)cc1 (configuration not stated)
 : ., -18%
- CC(=O)Nc1nc2ccc(Br)cc2s1
 : >57, ?
- Cc1ccc(C)c(-c2nc3cc(N)ccc3o2)c1
 : >57, -9%
- CCOCCCNC(=O)c1cn(C)c2ccc(S(=O)(=O)N(C)C3CCCCC3)cc2c1=O
 : >57, 1%
- CCC(=NCCCN(CC)CC)c1c(O)n(-c2ccccc2)c(=O)[nH]c1=O
 : >57, .
- CC(C)(C)c1nc(N2CCN(C(=O)c3ccco3)CC2)c2nnn(Cc3ccccc3Cl)c2n1
 : >57, ?
- Nc1cc(Br)c(N)c(Br)c1
 : >57, ?
- CC(C)CC(=O)N1CCN(S(C)(=O)=O)CC1
 : >57, -11%
- O=C1OCCC1Sc1nc2ccccc2s1 (configuration not stated)
 : >57, 5%
- COc1ccc(-n2c(Cc3cccn3C)nnc2SCC(=O)NC2CCCCC2)cc1
 : >57, 1%
- CCN(C(=O)CN1CCN(c2ccc(OC)cc2)CC1)c1c(N)n(Cc2ccccc2)c(=O)[nH]c1=O
 : >57, -3%
- CC1=C(C(=O)OCc2ccccc2)C(c2ccc3ccccc3c2)NC(=O)N1CCCCCC(=O)O (configuration not stated)
 : >57, ?
- CCCc1cc(=O)oc2cc(C)c(CN3CCCC3)c(O)c12
 : >57, -16%
- CC(NS(=O)(=O)c1ccccc1)C(=O)Nc1ccc(S(N)(=O)=O)cc1 (configuration not stated)
 : >57, -3%
- N#Cc1ccsc1NC(=O)CSc1ncn[nH]1
 : >57, 19%
- CC(=O)C(C)Oc1cc(C)cc2oc(=O)c(C)c(C)c12 (configuration not stated)
 : >57, ?
- O=C(NCc1cccs1)C1CCN(S(=O)(=O)c2cccs2)CC1
 : >57, -2%
- COc1ccccc1N1CCN(C(=O)C(F)F)CC1
 : >57, 4%
- O=c1c(CCc2ccccc2)nc2cnc(Nc3ccccc3)nc2n1Cc1cccs1
 : >57, ?
- C#CC(C)(CC)NC(=O)Cn1nnc(-c2ccc(S(C)(=O)=O)cc2)n1 (configuration not stated)
 : >57, 1%
- CCC(c1nnnn1Cc1ccco1)N(CCc1ccccc1)Cc1cc2cc(C)ccc2[nH]c1=O (configuration not stated)
 : >57, -18%
- O=C(CSc1ccc2nnc(-c3ccccn3)n2n1)NCc1ccco1
 : >57, 10%
- Cc1cc(NC(=O)Nc2cc(C)nn2-c2ccccc2)n(-c2ccccc2)n1
 : >57, -2%
- CC(C)(C)c1ccccc1NC(=O)c1cccnc1
 : >57, .
- O=C(CC1CCS(=O)(=O)C1)Nc1ccc[nH]c1=O (configuration not stated)
 : >57, 7%
- O=C(c1noc2c1CCCC2)N1CCOCC1
 : >57, -4%
- CCOC(=O)Nc1c(C(=O)OC)[nH]c2cccc(OC)c12
 : >57, 10%
- Cc1[nH]nc2c1-c1nc3ccccc3nc1C(C)(C)C2
 : >57, 8%
- CO[C@]1(NC(=O)C2SC(=C(C(N)=O)C(=O)O)S2)C(=O)N2C(C(=O)O)=C(CSc3nnnn3C)CS[C@H]21 (some centres not stated)
 : >57, 0.5µM*
- CN(C)C1=NC(N(C)C)=NP(N(C)C)(N(C)C)=N1
 : ., -3%
- Cc1ccc(C)n1-n1cnc2sc3c(c2c1=O)CCC3
 : >57, .
- c1ccc(P(c2ccccc2)c2ccccc2)cc1
 : ., -24%
- COCCn1c(=O)c(-c2cccc(C#N)c2)nc2cnc(OC)nc21
 : >57, 1%

The list continues:
The line under a structure holds: SmPrx2 inh, LT uptake inh
- COC(=O)c1cc(C(=O)OC)n(Cc2ccc(F)cc2)n1
 : >57, .
- Cc1nn2c(N)csc2nc1=O
 : >57, -1%
- CCCCNC(=O)c1sc2nc(C)cc(COC)c2c1-n1cccc1
 : >57, ?
- CC(C)CNC(=O)CSc1nnc(-c2ccccn2)n1Cc1ccccc1
 : >57, -15%
- CCC(=O)Oc1cccc(C(=O)Nc2ccc(-c3nnc(-c4ccco4)o3)cc2)c1
 : ., ?
- Nc1ccc(SCCN2C(=O)c3ccccc3C2=O)cc1
 : >57, -4%
- CCS(=O)(=O)CCSc1nc2ccccc2s1
 : >57, -10%
- c1cc(-c2nnc3n2CCCCC3)ccn1
 : >57, -6%
- Cn1c(=O)c(-c2ccc(Cl)cc2)nc2cncnc21
 : >57, -6%
- CC(C)CC(=O)Nc1ccccc1-c1nnn(CC(=O)N2CCOCC2)n1
 : >57, -4%
- NC(=O)CN1CCN(C(=O)Nc2ccccc2)CC1
 : >57, -11%
- NC(=O)c1c(NC(NC(=O)c2ccco2)(C(F)(F)F)C(F)(F)F)sc2c1CCCC2
 : >57, .
- Cc1noc(C)c1COC(=O)c1ccccc1Sc1ccccc1C#N
 : >57, ?
- O=c1c(-c2cccs2)nc2cnc(Oc3ccccc3)nc2n1Cc1cccs1
 : >57, ?
- Cc1c(O)c(=O)n(-c2ccccc2)n1C
 : >57, -8%[3.58 µM]
- Cc1ccccc1-n1c(=O)cc(N2CCc3ccccc3C2)[nH]c1=O
 : >57, -7%
- COC1=C[C@H]2[C@@H]3Cc4ccc(OC)c(O)c4[C@@]2(CCN3C)CC1=O
 : >57, ?
- Cc1ccccc1N=C1Nc2ccccc2CS1
 : >57, -19%
- CS(=O)(=O)N1CCN(c2nc(-c3ccc(F)cc3)cs2)CC1
 : ., -22%
- CC(C)Oc1cccc(C(=O)O)c1
 : >57, .
- Cc1ccc(S(=O)(=O)c2nc(N3CCOCC3)sc2Cl)cc1
 : >57, -2%
- C[C@H](N)[C@H](O)c1cccc(O)c1
 : >57, -6%[3.58 µM]
- CCN=C1SC(CC(=O)Nc2ccc(C)cc2)C(=O)N1CC (configuration not stated)
 : >57, 2%
- CN(C(=O)c1cccnc1)c1nnc(-c2cnccn2)s1
 : >57, 8%
- O=C(Nc1ccc(S(=O)(=O)N2CCCc3ccccc32)cc1)C1CCCO1 (configuration not stated)
 : >57, ?
- Cc1nc2ccccc2nc1N1CCCCC1
 : >57, 15%
- COC(=O)c1cc(Br)c(=O)n(CCc2ccccc2)c1
 : >57, ?
- COC(=O)c1ccccc1NC(=O)c1cc2ncc(Br)cn2n1
 : >57, 3%
- O=C1CCC=C1[C@@H](O)CCc1ccccc1
 : ., -5%[8 µM]
- Cc1cccn2c(=O)c3cc(C(=O)NC(C)c4ccccc4)c(=N)n(CCCn4ccnc4)c3nc12 (configuration not stated)
 : >57, ?
- CCCCN1C(=O)C2ON(c3ccccc3C)C(c3ccco3)C2C1=O (configuration not stated)
 : ., ?
- O=P(O)(O)C(Cl)(Cl)P(=O)(O)O
 : >57, -1%
- COc1ccccc1N(C(=O)Cn1nnc2ccccc21)C(C(=O)NCc1ccco1)c1ccc(C)o1 (configuration not stated)
 : >57, -18%
- CN(CC(=O)O)Cc1c(O)c(Cl)cc(Cl)c1Cl
 : >57, -10%[8 µM]
- CC(C)OC(=O)c1nnn(-c2nonc2N)c1CN1CCCCCC1
 : >57, -3%
- Nc1ccc(-c2ccc(N)cc2C(F)(F)F)c(C(F)(F)F)c1
 : >57, -17%
- O=C(CN1C2=NCCCN2c2ccccc21)c1cccs1
 : >57, -9%
- COc1cccc(OCCOc2cccc(/C=N/n3cnnc3)c2)c1
 : ., -21%
- O=c1ccc2cc(O[C@@H]3O[C@@H](CO)[C@@H](O)[C@@H](O)[C@H]3O)c(O)cc2o1
 : >57, ?
- COc1ccc(S(=O)(=O)N2CCC(C(=O)NCc3cccc(OC)c3)CC2)cc1
 : >57, -16%

Compound profiles (already shown).
COc1cccc(OCCOc2cccc(/C=N/n3cnnc3)c2)c1 as listed: SmPrx2 inh = .; LT uptake inh = -21%
Nc1ccc(-c2ccc(N)cc2C(F)(F)F)c(C(F)(F)F)c1 as listed: SmPrx2 inh = >57; LT uptake inh = -17%

Next part
The line under a structure holds: SmPrx2 inh, LT uptake inh
- Cc1onc(-c2ccccc2)c1C(=O)N1CCN(C(=O)c2ccco2)CC1
 : >57, -2%
- COc1ccc(Cl)cc1N(CC(=O)N1CCN(Cc2ccccc2)CC1)S(C)(=O)=O
 : >57, -3%
- CC(C)(CNC(=O)C1CCCC1)CNC(=O)C1CCCC1
 : >57, 3%
- O=C(CSc1ncn(-c2ccccc2)n1)Nc1nc2c(s1)CCCC2
 : >57, 9%
- CN(C)c1ccc(/C=C/c2ccncc2)cc1
 : >57, 14%
- CCN(CC)S(=O)(=O)c1cc(C)c(C)cc1Br
 : >57, -2%
- C[C@H](C(=O)c1ccccc1)[C@@H](c1ccccc1)N1CCOCC1
 : >57, -1%[8 µM]
- O=C(Cn1cnc2c(nnn2-c2ccc(F)cc2)c1=O)NCC1CCCO1 (configuration not stated)
 : >57, ?
- Cc1csc(NC(=O)CSc2nnc(-c3ccoc3C)n2CCc2ccccc2)n1
 : >57, 10%
- Cc1ccc(OCCC(=O)OCC(=O)C(C)(C)C)cc1
 : >57, 8%
- COC(=O)c1cc2c(ccn2-c2ccc(F)cc2)n1CC(=O)N1CCN(C(=O)c2ccco2)CC1
 : >57, 2%
- CCOC(=O)C1=C(C)NC(=O)NC1c1ccc(OCC(=O)N2CCCCC2)cc1 (configuration not stated)
 : >57, 0%
- O=C(C1CCC(N2C(=O)C3CC=CCC3C2=O)CC1)N1CCCCC1 (configuration not stated)
 : ., -2%
- COCCCn1c(=S)[nH]c2ncccc2c1=O
 : >57, 11%
- Cc1cccc2cc(COC(=O)C3CCCO3)c(=O)[nH]c12 (configuration not stated)
 : >57, -8%
- Cc1ccc2c(C)c(C(=O)Nc3c(C)n(C)n(-c4ccccc4)c3=O)oc2c1
 : >57, ?
- Cc1ccc(Cl)cc1
 : ., -2%
- CN(C)c1ccc(C2N(C(=O)N3CCOCC3)CCN2S(=O)(=O)c2ccccc2)cc1 (configuration not stated)
 : >57, 2%
- CNCCCC12CCC(c3ccccc31)c1ccccc12
 : >57&>57&>57, 5µM*!
- CC(OC(=O)C1CCCO1)C(=O)NC1CCCC1 (configuration not stated)
 : >57, 0%
- CN(Cc1cccs1)CC(O)COCc1ccco1 (configuration not stated)
 : >57, -15%
- CCC(=O)N1c2ccccc2-c2nnc(SC)nc2OC1c1ccc(OC)c(OC)c1 (configuration not stated)
 : >57, 6%
- CCOC(=O)N1CCN(C(=O)c2ccc(N(C)S(C)(=O)=O)cc2)CC1
 : >57, 8%
- CC(=O)OC1=C(C#N)Cn2ccc3cccc1c32
 : >57, -12%
- CCc1nnc2n1N=C(c1ccc(-c3cc(Cl)ccc3Cl)o1)CS2
 : >57, -5%
- c1ccc2sc(Cc3nnc4n3CCCCC4)nc2c1
 : >57, ?
- CCCNS(=O)(=O)c1ccc(OCC(=O)NCc2ccc3c(c2)OCO3)cc1
 : >57, -13%
- Fc1cccc(Cl)c1CSc1ncn[nH]1
 : ., -10%
- Cc1ccc(SC(C)C(=O)NCC(C)C)cc1 (configuration not stated)
 : >57, 3%
- COc1ccc(OCC(=O)Nc2ccc(S(=O)(=O)N3CCOCC3)cc2)cc1
 : >57, 11%
- Cc1cccc(CNc2ccnc(-c3ccc(N(C)C)cc3)n2)c1
 : >57, ?
- COC(=O)N1CCC2(CC1)CN(c1ccccn1)C2
 : >57, 5%
- Cc1cc(-n2c(C)cc(C(=O)CN3C(=O)NC4(CCCCCC4)C3=O)c2C)no1
 : >57, 5%
- Cc1sc(NC(=O)CSc2nnc3scc(-c4ccccc4)n23)c(C#N)c1C
 : >57, -7%
- O=c1oc(Cl)c(Cl)c2ccccc12
 : >57, ?
- COc1ccc(OC[C@@H](CO)OC)cc1
 : ., 9%[8 µM]
- c1ccc2c(CSCc3cccc4ccccc34)cccc2c1
 : >57, ?
- COc1ccc(-n2c(=O)[nH]cc(C(=O)N3CCCc4ccccc43)c2=O)cc1
 : >57, -2%

High-throughput results deposited in PubChem BioAssay by National Center for Advancing Translational Sciences (NCATS).

An excerpt (hit frequency here may not be typical).
